UCH37 inh – blocks the human deubiquitinase UCH37 | purified proteasome/UCH37, Ub-AMC cleavage fluorescence | inhibition, % (test concentration not listed) | hit rate 0.33% among 330,000;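 active = mean of two replicates above 20%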;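 also: 0% = compound-free wells with enzyme and 100% = wells lacking proteasome; stock transfer was 100 nL into about 20 µL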
Target sequence (Q9Y5K5 whole entry, looked up): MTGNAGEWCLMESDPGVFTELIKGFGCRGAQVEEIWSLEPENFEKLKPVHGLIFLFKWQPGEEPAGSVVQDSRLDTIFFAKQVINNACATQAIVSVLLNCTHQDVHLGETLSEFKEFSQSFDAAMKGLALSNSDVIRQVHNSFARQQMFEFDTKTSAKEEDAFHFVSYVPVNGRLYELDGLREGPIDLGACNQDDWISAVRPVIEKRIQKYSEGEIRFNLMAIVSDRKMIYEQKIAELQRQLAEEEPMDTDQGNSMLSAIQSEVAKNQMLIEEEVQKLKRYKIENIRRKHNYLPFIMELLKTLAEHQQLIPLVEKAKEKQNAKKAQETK
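Material: human UCH37 enzyme supplied as purified proteasome complex. Measure: % inhibition of Ub-AMC cleavage fluorescence. Medium: pH 7.4 Tris-HCl (50 mM) with ovalbumin, ATP-MgCl2, DTT. Times: 30 min preincubation with enzyme, 25 min cleavage at room temperature. Detection: AMC fluorescence intensity at 355/460 nm.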
RanGTP-Impb inh – inhibitors of RanGTP-importin-beta interaction, primary screen, biochemical, FRET, CFP-Ran, YFP-importin-beta, homogeneous; inhibition, % (test concentration not listed); hit rate 1.1% among 300,000; cell-free CFP-Ran/YFP-importin-beta FRET ratio;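 active = most replicates above 15%; inconclusive = exactly half above 15%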;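 also: 0% = DMSO wells and 100% = Ran loaded with GDP instead of GTP; wells of about 40 µL received 100 nL stock; the first replicate is given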
T cruzi inh – T. cruzi replication inhibition | T. cruzi beta-gal in NIH3T3, luminescence, 90 h | inhibition, % (test concentration not listed) | hit rate 1.4% among 300,000;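 active = mean inhibition across valid replicates above about 55%, limit read from the data; inconclusive = mean below that limit but half or more replicates reach it; inactive = mean below it, under half of replicates reach it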;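 also: signal also drops with host cell toxicity which is not excluded here; 0% = plate median of DMSO wells and 100% = zero luminescence signal; higher percent means less beta-gal luminescence so fewer parasites; stock transfer was 50 nL into about 50 µL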
Beta cell apopt – beta cell apoptosis inhibition. INS-1E cytokine-induced death, ATP luminescence, 48 h; percent of positive-control rescue, neutral wells zero. protection from apoptosis, % (concentration not given with the values). hit rate 0.8% among 300,000;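 active = all replicates at 75% or more, or half of them and the mean; inconclusive = half reach 75% but not the mean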;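 also: 0% = cytokine-treated negative control wells and 100% = positive control rescue; higher means more ATP so stronger rescue from cytokine killing; wells of about 40 µL received 100 nL stock; the first replicate is given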
Calb FLC – affects C. albicans growth with fluconazole | hit rate 0.57% among 300,000 | C. albicans CaCi-2 (fluconazole-resistant clinical isolate) + fluconazole, Alamar Blue growth, 48 h | growth inhibition, % (concentration not given with the values);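 active = most replicates above 75%; inconclusive = exactly half above 75%; inactive = most below 75%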;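 also: all wells also contain fluconazole at 8 µg/ml as a sub-toxic cotreatment; 0% = median of DMSO wells and 100% = median of geldanamycin control wells; wells of about 8 µL received 7.5 nL stock; the first replicate is given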
B2AR ag – agonists of human beta-2 adrenergic receptor inducing internalization | Am2.2-beta2AR cells, FAP receptor internalization, flow cytometry; reference of the scale not given here | response, % (no concentration beside the values) | hit rate 0.43% among 340,000 | AID 504454;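 active = response above a set limit, near 3 SD of response in nonfluorescent compounds, cut at about 42% in these data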;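 also: stock transfer was 100 nL into about 11 µL; a reference agonist was the positive control; negative values mostly stem from fluorescent compounds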
Target sequence (P07550 whole entry, looked up): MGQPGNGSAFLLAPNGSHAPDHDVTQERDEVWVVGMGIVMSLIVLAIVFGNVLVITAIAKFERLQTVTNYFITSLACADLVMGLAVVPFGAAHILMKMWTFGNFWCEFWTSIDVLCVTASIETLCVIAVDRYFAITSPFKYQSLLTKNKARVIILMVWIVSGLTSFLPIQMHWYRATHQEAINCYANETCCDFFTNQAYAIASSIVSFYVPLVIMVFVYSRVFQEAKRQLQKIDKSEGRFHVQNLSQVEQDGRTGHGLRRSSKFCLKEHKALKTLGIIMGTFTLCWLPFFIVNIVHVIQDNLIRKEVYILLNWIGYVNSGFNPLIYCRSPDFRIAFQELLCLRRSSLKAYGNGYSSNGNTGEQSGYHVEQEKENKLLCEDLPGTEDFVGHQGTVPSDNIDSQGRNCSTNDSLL
Bfl-1 A1 inh – inhibitors of the anti-apoptotic protein A1, read as caspase activation. caspase activation, % (no concentration beside the values). hit rate 0.066% among 330,000. MEF A1-2A-BIM cells, Caspase-Glo 3/7 luminescence, 3 h; percent of clofoctol response, vehicle zero. AID 2462;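 active = over half of replicate activation scores above 10%, or exactly half above 10 with the replicate mean above 10; inconclusive = replicate mean below 10 yet half the replicates above 10; inactive = over half of replicates below 10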;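 also: wells of about 30 µL received 50 nL stock; many hits fall short of the cut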
LANA-H2A inh – blocks KSHV LANA binding to histone H2A/H2B | inhibition, % (no concentration beside the values) | hit rate 0.6% among 320,000 | Q9QR71 | cell-free LANA-H2A/H2B peptide, fluorescence polarization; in the data active = inhibition mostly above about 10%, no sharp cut-off; inactive = mostly below about 6.7%;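 also: stock transfer was 7.5 nL into about 10 µL; 0% = median of vehicle wells and 100% = median of positive control wells; one replicate is shown; the record names a cut of 25% in any replicate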
Numbers without * were called inactive; ? = inconclusive; . = not tested or not shown.

SMILES | UCH37 inh | RanGTP-Impb inh | T cruzi inh | Beta cell apopt | Calb FLC | B2AR ag | Bfl-1 A1 inh | LANA-H2A inh
CCC(c1nnnn1Cc1ccccc1)N(Cc1cc2cc(OC)ccc2[nH]c1=O)CC1CCCO1 (stereo unspecified) | -7.7 | -8.7 | 25.2 | -1.3 | -5.7 | -3.2 | 1.2 | -6.8
O=[N+]([O-])c1ccc(C[n+]2cccc3c4ccccc4ccc32)cc1 | -180.4 | -5.0 | -3.0 | . | -13.6 | 7.7 | 1.0 | -0.3
O=C(O)c1ccccc1C(=O)Nc1nccs1 | 3.7 | -1.8 | 1.6 | -9.7 | 14.7 | -0.6 | -0.5 | -2.7
O=C(NNS(=O)(=O)c1ccc(F)cc1F)C1Cc2c(ccc3ccccc23)O1 (stereo unspecified) | 6.3 | -0.8 | 1.4 | 0.6 | 40.0 | 5.0 | -0.3 | -2.0
CCOC(=O)C(CC)Sc1nnc(COc2ccc(C)cc2)n1-c1ccccc1 (stereo unspecified) | 4.7 | -1.6 | 12.1 | -7.9 | 16.2 | -0.6 | 0.8 | -4.1
CN(/N=C/c1ccc(-c2ccc([N+](=O)[O-])cc2)o1)c1ccccc1 | . | -23.1 | 17.3 | 5.7 | 8.1 | -395.9 | -1.3 | -0.1
CCOc1ccc(CNC(=O)CCCC(=O)n2ncc3cc(C)ccc32)cc1 | 4.1 | ? | -16.8 | -4.4 | 6.1 | -14.3 | . | 1.0
O=C(Nc1nccs1)NC(C(F)(F)F)C(F)(F)F | -0.5 | 4.5 | -20.9 | -1.7 | -0.3 | 1.4 | 0.6 | -2.7
COc1ccc(CCNS(=O)(=O)c2cc3c4c(c2)CCN4C(=O)CC3)cc1OC | 2.5 | 4.2 | -2.1 | . | -2.0 | -1.5 | . | .
COc1cccc(/C=N/NC(=O)Cn2ccnc2C)c1 | . | 4.7 | -2.0 | -4.6 | -4.1 | -3.2 | 0.0 | -1.2
COc1ccc2c(c1OC)C(=O)OC2Nc1nc(-c2cc3ccccc3oc2=O)cs1 (stereo unspecified) | -4.0 | -1.8 | -17.7 | 6.4 | 1.9 | 12.2 | -8.0 | .
COC(=O)c1cccc(NS(=O)(=O)c2ccc(OC)cc2)c1C | 2.9 | 1.4 | -18.7 | 2.2 | 21.6 | 1.2 | 0.6 | 6.5
CCCCc1c(O)c2cccc3c2n(c1=O)CCC3 | -1.2 | -5.7 | 3.8 | -4.2 | 5.8 | -4.4 | -0.1 | -1.5
COc1ccc(Cl)cc1NC(=O)C1COc2ccccc2O1 (stereo unspecified) | 2.9 | 8.2 | 2.9 | -4.4 | -44.3 | -3.9 | 0.6 | -2.0
Cn1cnc2c(cnn2-c2ccccc2)c1=O | 2.1 | 3.1 | -14.6 | 0.1 | 3.4 | -9.7 | 1.8 | 1.6
Cc1ccc(N(CC(=O)NC2CCCCC2)C(=O)CNC(=O)c2ccco2)cc1F | 2.6 | -4.0 | 10.2 | 3.8 | -0.6 | 3.5 | 0.1 | 2.9
CCOc1ccccc1NC(=O)/C=C/C(N)=O | 4.3 | -0.9 | -1.5 | -8.7 | 8.3 | 2.6 | -0.5 | 1.8
COc1ccc(-n2c(-c3ccco3)n[nH]c2=S)cc1 | -0.8 | 2.4 | -2.5 | 1.5 | 1.1 | 4.8 | . | -0.5
COc1ccc2c(c1)S/C(=C\C(=O)c1ccncc1)N2C | 5.8 | 1.2 | 14.5 | 0.1 | -0.1 | -2.3 | -0.5 | -3.7
CCOc1ccccc1N1CCN(C(=O)c2c(-c3ccccc3Cl)noc2C)CC1 | -0.2 | ? | 1.6 | -0.9 | 2.3 | 0.4 | 0.2 | -0.3
O=C1c2ccccc2C(=O)N1CCCc1nc(-c2ccncc2)no1 | 0.2 | 3.1 | -5.6 | . | -22.2 | -5.0 | -0.1 | 1.0
COc1ccc(OC)c(-n2c(-c3cccc(S(=O)(=O)N(C)C)c3)n[nH]c2=S)c1 | -2.2 | 2.5 | -2.9 | . | -12.4 | 6.2 | -0.1 | -0.4
O=C(O)c1ccc(NS(=O)(=O)c2ccc3c(c2)C(=O)c2cc(S(=O)(=O)Nc4ccc(C(=O)O)cc4)ccc2-3)cc1 | 12.9 | 1.2 | -26.1 | -1.2 | ? | -1.1 | -0.4 | 5.3
CCOc1ccc(S(=O)(=O)NC(C)C(=O)NCc2ccc3c(c2)OCO3)cc1 (stereo unspecified) | -0.2 | 1.1 | 0.6 | -2.6 | 45.5 | 1.1 | -0.1 | 3.2
O=C(NC(=Nc1ccccc1)N1CCOCC1)Nc1ccccc1 | 5.7 | ? | 7.4 | . | 9.6 | -2.6 | -0.2 | -0.8
CC(NC(=O)c1ccco1)C(=O)OCc1cccc(C(F)(F)F)c1 (stereo unspecified) | -0.2 | . | . | -0.5 | . | -2.0 | 1.0 | 3.1
CN1CCN(C(=S)Nc2ccccc2Cl)CC1 | 2.7 | 8.8 | -19.7 | -1.0 | -7.9 | -0.5 | 0.3 | -0.1
Cc1ccccc1CN1CCCC(C(=O)Nc2ccc(-c3ccn[nH]3)cc2)C1 (stereo unspecified) | 1.4 | 1.5 | 17.2 | -7.3 | -13.9 | -1.1 | 0.4 | 4.2
Cn1c(Cc2ccccc2)[n+](C)c2ccccc21 | 0.8 | -3.2 | -7.6 | 1.7 | 1.2 | 3.1 | 0.0 | -1.6
Cc1cc(NC(=O)CSCC(=O)Nc2cc(C(F)(F)F)ccc2N2CCOCC2)no1 | 3.0 | . | . | 2.3 | . | -3.7 | 0.5 | -2.3
COc1ccccc1OCC(O)Cn1c(Br)nc2c1c(=O)[nH]c(=O)n2C (stereo unspecified) | 2.0 | . | . | 1.7 | 8.7 | 2.3 | ? | -4.5
NC(=O)c1sc(=S)n2c1[nH]c(=O)c1sccc12 | 11.0 | 5.3 | 5.3 | 6.5 | 14.2 | 2.2 | -0.3 | -3.2
COc1ccc(-n2nc3c(c2NC(=O)c2ccc(S(=O)(=O)N4CCOCC4)cc2)CS(=O)C3)cc1 (stereo unspecified) | -3.0 | 2.1 | 2.2 | 1.3 | 1.1 | 8.4 | 0.2 | 2.7
c1ccc2c(c1)CNc1ccccc1C2 | 2.1 | 5.3 | 20.4 | -8.6 | 32.2 | 2.1 | -0.8 | -2.9
CC1CCCCN1C(=O)C1CCCCN1S(=O)(=O)c1cccc([N+](=O)[O-])c1 (stereo unspecified) | 3.6 | 0.1 | 12.6 | -0.1 | 9.3 | 0.8 | 0.3 | 1.1
CCCCC(=O)Nc1c(C)cc(C)cc1Cl | 1.8 | -2.4 | -1.3 | -7.9 | 9.3 | 6.8 | 0.4 | 4.2
CC(/C=N/NC(=O)Cn1nccc1C)=C\c1ccc(C(C)C)cc1 | . | 2.5 | -5.9 | 15.5 | 3.7 | -3.4 | -0.5 | -0.7
O=C(NCC1CCCO1)C(c1ccc(F)cc1)N(C(=O)Cn1nnc(-c2ccc(F)cc2)n1)c1cccc(O)c1 (stereo unspecified) | 1.1 | 0.9 | 34.3 | -1.7 | ? | 10.0 | -0.3 | 2.6
COC(=O)c1sccc1NC(=O)COc1cccc(C)c1 | 1.6 | -0.1 | -0.7 | -0.3 | -2.1 | -3.5 | -2.4 | -2.5
Cc1ccc(C)c2[nH]c(=O)c(CCNC(=O)c3cc4ccccc4o3)cc12 | 2.7 | 4.6 | 0.4 | -4.0 | 25.1 | -9.0 | -0.9 | -5.2
CCOc1ccc(C(=O)N2CCN(CC(=O)N3CCCC3)CC2)cc1OCC | -1.0 | . | . | 1.9 | . | -7.1 | -0.6 | -0.9
Cc1cc(C)n(-c2ccc(NC(=O)C3CCN(Cc4cc(C)c(C)o4)CC3)cc2)n1 | -1.8 | 4.1 | 3.2 | -5.0 | 0.3 | 25.6 | 0.0 | -5.6
Cc1ccc(N(C(=O)CCC(=O)Nc2cc(C)on2)C(C(=O)NC2CCCC2)c2ccccc2)cc1 (stereo unspecified) | 5.7 | 1.3 | -13.6 | 4.9 | ? | 1.8 | -0.9 | -3.6
Cc1ccccc1CNS(=O)(=O)c1c(C)[nH]c(C)c1C(=O)N1CCCCC1 | 4.4 | 5.2 | 3.6 | -2.9 | -7.7 | 0.0 | -0.5 | 3.0
O=C(Nc1ccccc1F)c1ccc(S(=O)(=O)N2CCCCCC2)cc1 | -0.2 | . | . | 1.3 | . | 6.8 | -4.9 | -3.9
COc1cc(C2c3c(n[nH]c3C)C(=O)N2c2ccc(Br)cc2)ccc1O (stereo unspecified) | 2.5 | -5.7 | -21.7 | 1.2 | -2.0 | -1.6 | 0.1 | -3.7
CCOC(=O)C(c1ccccc1)C(Nc1ccccc1)c1ccccn1 (stereo unspecified) | 0.6 | -3.5 | 5.0 | 3.3 | 6.1 | -0.3 | -0.1 | -1.8
CC(C)O/C(=N\S(=O)(=O)c1ccc(Cl)cc1)c1ccccc1 | . | -0.6 | -5.9 | . | -32.7 | 1.2 | . | .
CCn1c(SCC(=O)N2CCCC2)nnc1-c1ccc(N)cc1 | 0.0 | 1.8 | -0.7 | -0.7 | -2.4 | 86.0* | 0.4 | 7.2
CCOC(=O)c1c(C)sc2c1N(C(=O)CN(CC)CC)c1cc(Cl)ccc1S2 | 7.4 | -2.0 | 37.4 | -4.9 | -15.1 | -0.8 | 0.0 | 3.3
Cc1ccccc1C(=O)Nc1ccc2c(c1)CCCN2C(=O)c1cccs1 | 5.0 | 6.4 | 2.8 | 13.7 | 0.3 | 7.4 | 0.2 | 1.2
CC(C)OCC(O)Cn1c(N2CCCC2)nc2c1c(=O)n(C)c(=O)n2C (stereo unspecified) | 3.0 | 7.9 | 3.9 | 0.2 | 3.5 | -3.5 | 0.4 | 0.8
O=C(O)c1nn(-c2cccc(C(F)(F)F)c2)ccc1=O | 2.9 | 1.0 | -13.1 | -9.5 | 10.9 | -6.5 | 0.3 | -0.3
CCOC(=O)c1cccc(-n2cccc2/C=C2\NC(=O)N(CC(=O)O)C2=O)c1 | 4.8 | . | . | -6.8 | . | -1.8 | 1.3 | 2.5
CCN(CCCNC(=O)CN1C(=O)COc2ccccc21)c1cccc(C)c1 | 0.4 | 5.3 | 9.5 | -3.1 | 7.0 | 0.6 | 1.0 | 3.8
CC1CCN(C(=O)Cn2cc3c(n2)CCCC3)CC1 | -1.7 | ? | -7.2 | -1.2 | 3.9 | 1.7 | -0.3 | -2.1
CSCCC(NS(=O)(=O)c1ccccc1F)C(=O)NNC(=O)c1csc(N2CCOCC2)n1 (stereo unspecified) | -6.2 | -3.3 | -4.4 | -1.9 | 3.9 | -0.7 | -0.1 | 0.3
CC(=O)/C(C(=N)N1CCN(Cc2ccccc2)CC1)=C(\C)O | -1.5 | 1.1 | 6.2 | -1.3 | -0.2 | 0.3 | 0.3 | -5.4

Compound activity (PubChem)

Compounds were not picked by outcome; overall some 4.3% were active at least once.
